A1 apoptosis 2: A1 inhibitors via caspase activation, primary screen, cell-based, luminescence, HTS, two replicates. MEF A1-2A-BIM cells, caspase-Glo luminescence, 3 h; percent of clofoctol response, DMSO zero. caspase activation, % (concentration not given with the values). 24,000 tested, under 10 active. AID 2465, 2010; in the data active = caspase activation above about 5.9%;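 also: wells of about 30 µL received 50 nL stock; the first replicate is given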
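system = A1-2A-BIM-expressing MEF cells | quantity = 2500 MEF cells/well | dosing = 50 nL compound per well, pinned | schedule = overnight cell settling, then 3 h compound exposure, 37 °C | signal = luminescence from DEVD-luciferin Caspase-Glo reagent, 1:1 in 50 mM HEPES, 1 h RT | read-out = Caspase-3/7 activation, seen as rise in luminescence signal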
Active calls of the source: *.

Preview (17 entries):
entry	smiles	A1 apoptosis 2
1	CCO/N=[N+](\[O-])N1CCCC1	0.6
2	COc1ccc(CN(C)C[C@@H]2Oc3ccc(NS(=O)(=O)c4ccc(Cl)cc4)cc3C(=O)N([C@@H](C)CO)C[C@H]2C)cc1	-0.6
3	C[C@H]1CCCCO[C@H](CN(C)C)[C@@H](C)CN([C@@H](C)CO)C(=O)c2cc(NC(=O)Nc3ccc4c(c3)OCO4)ccc2O1	0.9
4	C[C@@H]1CN([C@H](C)CO)C(=O)c2cc(NC(=O)c3ccncc3)ccc2O[C@@H](C)CCCCO[C@H]1CN(C)Cc1ccncc1	0.5
5	CNC[C@H]1Oc2ccc(NC(=O)Cc3ccccc3)cc2C(=O)N([C@@H](C)CO)C[C@@H]1C	0.5
6	CCOC(=O)N(C)C[C@H]1OCc2cnnn2CCCC(=O)N([C@H](C)CO)C[C@H]1C	-0.7
7	C[C@H]1CN([C@@H](C)CO)C(=O)CCCn2cc(nn2)CO[C@@H]1CN(C)Cc1cccc(O)c1	-0.7
8	C[C@H](CO)N1C[C@H](C)[C@@H](CN(C)C(=O)Nc2cccc3ccccc23)Oc2ccc(NC(=O)Nc3ccc(C(F)(F)F)cc3)cc2CC1=O	-0.2
9	Cc1ccc(S(=O)(=O)Nc2cccc3c2O[C@@H](CN(C)C(=O)Nc2ccc(F)cc2)[C@H](C)CN([C@H](C)CO)C3=O)cc1	3.6
10	CNC[C@H]1Oc2ccc(NC(=O)CCN3CCOCC3)cc2CC(=O)N([C@@H](C)CO)C[C@H]1C	0.2
11	CC(C)NC(=O)N(C)C[C@H]1Oc2ccc(N(C)C)cc2CC(=O)N([C@H](C)CO)C[C@H]1C	0.2
12	COc1ccc(S(=O)(=O)N(C)C[C@@H]2Oc3ccc(NC(=O)c4ccncc4)cc3C(=O)N([C@H](C)CO)C[C@H]2C)cc1	0.7
13	C[C@@H]1CCCCO[C@@H](CN(C)S(C)(=O)=O)[C@H](C)CN([C@H](C)CO)C(=O)c2cc(NC(=O)CCC(F)(F)F)ccc2O1	2.4
14	O=C(CCCCCCC(=O)NOCc1ccccc1)NO	0.0
15	C[C@H]1CN([C@@H](C)CO)C(=O)Cc2cc(NC(=O)Cc3cn(C)c4ccccc34)ccc2O[C@H]1CN(C)S(=O)(=O)c1cccs1	1.6
16	C[C@H](CO)N1C[C@H](C)[C@H](CN(C)C(=O)Cc2ccccc2)OCCCC[C@H](C)Oc2ccc(NS(=O)(=O)c3ccc(F)cc3)cc2C1=O	-0.8
17	C[C@H]1CN([C@@H](C)CO)C(=O)Cc2cc(NC(=O)Nc3ccc(C(F)(F)F)cc3)ccc2O[C@H]1CN(C)C(=O)Nc1cccc2ccccc12	0.7

This part in full, from the start:
entry	smiles	A1 apoptosis 2
1	CCO/N=[N+](\[O-])N1CCCC1	0.6
2	COc1ccc(CN(C)C[C@@H]2Oc3ccc(NS(=O)(=O)c4ccc(Cl)cc4)cc3C(=O)N([C@@H](C)CO)C[C@H]2C)cc1	-0.6
3	C[C@H]1CCCCO[C@H](CN(C)C)[C@@H](C)CN([C@@H](C)CO)C(=O)c2cc(NC(=O)Nc3ccc4c(c3)OCO4)ccc2O1	0.9
4	C[C@@H]1CN([C@H](C)CO)C(=O)c2cc(NC(=O)c3ccncc3)ccc2O[C@@H](C)CCCCO[C@H]1CN(C)Cc1ccncc1	0.5
5	CNC[C@H]1Oc2ccc(NC(=O)Cc3ccccc3)cc2C(=O)N([C@@H](C)CO)C[C@@H]1C	0.5
6	CCOC(=O)N(C)C[C@H]1OCc2cnnn2CCCC(=O)N([C@H](C)CO)C[C@H]1C	-0.7
7	C[C@H]1CN([C@@H](C)CO)C(=O)CCCn2cc(nn2)CO[C@@H]1CN(C)Cc1cccc(O)c1	-0.7
8	C[C@H](CO)N1C[C@H](C)[C@@H](CN(C)C(=O)Nc2cccc3ccccc23)Oc2ccc(NC(=O)Nc3ccc(C(F)(F)F)cc3)cc2CC1=O	-0.2
9	Cc1ccc(S(=O)(=O)Nc2cccc3c2O[C@@H](CN(C)C(=O)Nc2ccc(F)cc2)[C@H](C)CN([C@H](C)CO)C3=O)cc1	3.6
10	CNC[C@H]1Oc2ccc(NC(=O)CCN3CCOCC3)cc2CC(=O)N([C@@H](C)CO)C[C@H]1C	0.2
11	CC(C)NC(=O)N(C)C[C@H]1Oc2ccc(N(C)C)cc2CC(=O)N([C@H](C)CO)C[C@H]1C	0.2
12	COc1ccc(S(=O)(=O)N(C)C[C@@H]2Oc3ccc(NC(=O)c4ccncc4)cc3C(=O)N([C@H](C)CO)C[C@H]2C)cc1	0.7
13	C[C@@H]1CCCCO[C@@H](CN(C)S(C)(=O)=O)[C@H](C)CN([C@H](C)CO)C(=O)c2cc(NC(=O)CCC(F)(F)F)ccc2O1	2.4
14	O=C(CCCCCCC(=O)NOCc1ccccc1)NO	0.0
15	C[C@H]1CN([C@@H](C)CO)C(=O)Cc2cc(NC(=O)Cc3cn(C)c4ccccc34)ccc2O[C@H]1CN(C)S(=O)(=O)c1cccs1	1.6
16	C[C@H](CO)N1C[C@H](C)[C@H](CN(C)C(=O)Cc2ccccc2)OCCCC[C@H](C)Oc2ccc(NS(=O)(=O)c3ccc(F)cc3)cc2C1=O	-0.8
17	C[C@H]1CN([C@@H](C)CO)C(=O)Cc2cc(NC(=O)Nc3ccc(C(F)(F)F)cc3)ccc2O[C@H]1CN(C)C(=O)Nc1cccc2ccccc12	0.7
18	CCc1cccc(NC(=O)O[C@H]2[C@H](OC(=O)Nc3ccc4c(c3)OCO4)[C@@H](OC(=O)Nc3ccc4c(c3)OCO4)[C@@H](OC)O[C@@H]2CO)c1	-0.5
19	COc1ccc(CN(C)C[C@@H]2OCc3cn(nn3)CCCC(=O)N([C@@H](C)CO)C[C@@H]2C)cc1	1.8
20	C[C@H](CO)N1C[C@H](C)[C@@H](CN(C)S(=O)(=O)c2cccs2)Oc2ccc(NS(=O)(=O)c3ccccc3)cc2CC1=O	0.2
21	C[C@@H]1CN([C@@H](C)CO)C(=O)Cc2cc(NS(=O)(=O)c3cn(C)cn3)ccc2O[C@H]1CN(C)Cc1ccc(Cl)c(Cl)c1	0.4
22	C[C@H]1CN([C@@H](C)CO)C(=O)Cc2cc(NC(=O)C3CCCCC3)ccc2O[C@H]1CN(C)CC1CCCCC1	1.9
23	COc1ccccc1S(=O)(=O)N(C)C[C@@H]1OCc2cnnn2CCCC(=O)N([C@@H](C)CO)C[C@@H]1C	0.2
24	COc1ccc(NC(=O)Nc2cccc3c2O[C@@H](CN(C)S(=O)(=O)c2ccc(F)cc2)[C@@H](C)CN([C@H](C)CO)C3=O)cc1	-1.0
25	C[C@@H]1CCCCO[C@@H](CN(C)Cc2ccncc2)[C@@H](C)CN([C@@H](C)CO)C(=O)c2cc(NC(=O)Nc3ccc(C(F)(F)F)cc3)ccc2O1	0.1
26	O=C(NCc1nc2ccccc2[nH]1)C1=C[C@@H](c2ccc(C(F)(F)F)cc2)C[C@@H](OCc2ccc(CO)cc2)O1	-0.6
27	Cc1noc(C)c1S(=O)(=O)Nc1ccc2c(c1)C(=O)N([C@@H](C)CO)C[C@@H](C)[C@@H](CN(C)C(=O)Nc1ccc(F)cc1)O2	-0.3
28	C[C@@H]1CN([C@H](C)CO)C(=O)c2cccc(NS(=O)(=O)c3ccccc3)c2O[C@@H]1CN(C)C	-0.5
29	Cc1ccc(S(=O)(=O)Nc2ccc3c(c2)CC(=O)N([C@H](C)CO)C[C@H](C)[C@@H](CN(C)Cc2ccncc2)O3)cc1	-0.4
30	C[C@H](CO)N1C[C@H](C)[C@H](CN(C)S(=O)(=O)c2ccc(Cl)cc2)Oc2ccc(NS(=O)(=O)c3cn(C)cn3)cc2CC1=O	1.6
31	C[C@H](CO)N1C[C@H](C)[C@H](CN(C)S(C)(=O)=O)Oc2ncc(-c3ccccc3)cc2C1=O	0.2
32	Cc1cc(C(=O)Nc2cccc3c2O[C@@H](CN(C)C)[C@H](C)CN([C@@H](C)CO)C3=O)n(C)n1	-1.1
33	CC(C)NC(=O)Nc1ccc2c(c1)CC(=O)N([C@@H](C)CO)C[C@H](C)[C@H](CN(C)C(=O)NC1CCCCC1)O2	-0.4
34	C[C@H]1CN([C@@H](C)CO)C(=O)CCCn2cc(nn2)CO[C@@H]1CN(C)S(=O)(=O)c1ccc(Cl)cc1	-0.8
35	Cc1noc(C)c1NC(=O)N(C)C[C@@H]1Oc2c(NS(C)(=O)=O)cccc2C(=O)N([C@H](C)CO)C[C@H]1C	-0.5
36	C[C@@H]1CCCCO[C@H](CN(C)C(=O)c2ccccc2)[C@H](C)CN([C@@H](C)CO)C(=O)c2cc(NC(=O)Cc3ccccc3)ccc2O1	1.1
37	CC(C)(C)[C@@H]1C=C(C(=O)N2CCN(Cc3ccc4c(c3)OCO4)CC2)O[C@H](OCc2ccc(CO)cc2)C1	-0.3
38	C[C@@H]1CN([C@H](C)CO)C(=O)c2cccc(NS(=O)(=O)c3cn(C)cn3)c2O[C@H]1CN(C)S(=O)(=O)c1cn(C)cn1	-0.5
39	Cc1ccc(S(=O)(=O)N(C)C[C@@H]2Oc3ccc(NS(=O)(=O)c4ccc(F)cc4)cc3CC(=O)N([C@H](C)CO)C[C@@H]2C)cc1	-0.7
40	C[C@@H]1CN([C@H](C)CO)C(=O)Cc2cc(NC(=O)c3ccncc3)ccc2O[C@H]1CN(C)C(=O)NC1CCCCC1	1.3

The last 2 compounds of the section above lead into the next.
entry	smiles	A1 apoptosis 2
39	Cc1ccc(S(=O)(=O)N(C)C[C@@H]2Oc3ccc(NS(=O)(=O)c4ccc(F)cc4)cc3CC(=O)N([C@H](C)CO)C[C@@H]2C)cc1	-0.7
40	C[C@@H]1CN([C@H](C)CO)C(=O)Cc2cc(NC(=O)c3ccncc3)ccc2O[C@H]1CN(C)C(=O)NC1CCCCC1	1.3
41	C[C@@H]1CN([C@H](C)CO)C(=O)c2cccc(N(C)C)c2O[C@@H]1CN(C)C(=O)Nc1ccc2c(c1)OCO2	0.1
42	C[C@@H]1CN([C@H](C)CO)C(=O)Cc2cc(NC(=O)Nc3ccc(C(F)(F)F)cc3)ccc2O[C@H]1CN(C)Cc1ccc2c(c1)OCO2	-1.3
43	C[C@@H]1CN([C@H](C)CO)C(=O)Cc2cc(NC(=O)Cc3ccccc3)ccc2O[C@@H]1CN(C)C(=O)NC1CCCCC1	-0.7
44	C[C@H]1CN([C@@H](C)CO)C(=O)c2cccc(NC(=O)Nc3ccc4c(c3)OCO4)c2O[C@@H]1CN(C)Cc1ccncc1	-0.5
45	Cc1ccc(S(=O)(=O)Nc2ccc3c(c2)CC(=O)N([C@@H](C)CO)C[C@H](C)[C@@H](CN(C)C(=O)NC(C)C)O3)cc1	-0.3
46	CNC[C@@H]1Oc2ccc(NS(=O)(=O)c3cccs3)cc2C(=O)N([C@H](C)CO)C[C@H]1C	-0.6
47	C[C@H](CO)N1C[C@H](C)[C@H](CN(C)Cc2ccc(Cl)c(Cl)c2)OCCCC[C@H](C)Oc2ccc(NC(=O)Nc3ccc(F)cc3)cc2C1=O	-1.6
48	C[C@@H]1CCCCO[C@H](CN(C)C(=O)Nc2cccc3ccccc23)[C@@H](C)CN([C@@H](C)CO)C(=O)c2cc(NC(=O)CCC(F)(F)F)ccc2O1	0.8
49	COc1ccc(S(=O)(=O)Nc2cccc3c2O[C@@H](CN(C)S(=O)(=O)c2cccs2)[C@@H](C)CN([C@@H](C)CO)C3=O)cc1	-0.1
50	COc1ccc(S(=O)(=O)Nc2cccc3c2O[C@H](CN(C)S(=O)(=O)c2ccc(F)cc2)[C@H](C)CN([C@@H](C)CO)C3=O)cc1	-0.5
51	Cc1noc(C)c1S(=O)(=O)N(C)C[C@@H]1OCCCC[C@@H](C)Oc2ccc(NS(=O)(=O)c3ccccc3)cc2C(=O)N([C@H](C)CO)C[C@H]1C	0.9
52	C[C@@H]1CN([C@@H](C)CO)C(=O)c2cc(NC(=O)C3CCCCC3)ccc2O[C@H]1CN(C)S(=O)(=O)c1ccc(F)cc1	0.4
53	COc1ccc(S(=O)(=O)N(C)C[C@@H]2OCCCC[C@H](C)Oc3ccc(NS(=O)(=O)c4ccc(C)cc4)cc3C(=O)N([C@@H](C)CO)C[C@@H]2C)cc1	-0.1
54	Cc1noc(C)c1NC(=O)N(C)C[C@H]1Oc2c(NC(=O)Nc3ccc(C(F)(F)F)cc3)cccc2C(=O)N([C@@H](C)CO)C[C@@H]1C	-0.1
55	C[C@@H]1CN([C@H](C)CO)C(=O)CCCn2cc(nn2)CO[C@@H]1CN(C)C(=O)Nc1ccnc(N2CCOCC2)c1	2.1
56	C[C@@H]1CN([C@H](C)CO)C(=O)c2cc(NS(=O)(=O)c3cccs3)ccc2O[C@@H](C)CCCCO[C@H]1CN(C)C(=O)NC1CCCCC1	1.1
57	O=C(N/N=C/[C@@H](O)[C@@H](O)[C@H](O)[C@H](O)CO)c1ccccc1O	1.1
58	C[C@H](CO)N1C[C@H](C)[C@@H](CN(C)C(=O)Nc2cccc3ccccc23)Oc2ccc(NS(=O)(=O)c3ccc(F)cc3)cc2C1=O	-0.9
59	COc1ccc(NC(=O)N(C)C[C@@H]2Oc3c(NS(=O)(=O)c4cccs4)cccc3C(=O)N([C@@H](C)CO)C[C@H]2C)cc1	1.0
60	C[C@H](CO)N1C[C@H](C)[C@@H](CN(C)Cc2ccccc2)Oc2c(NS(=O)(=O)c3cn(C)cn3)cccc2C1=O	-0.4
61	C[C@@H]1CN([C@H](C)CO)C(=O)Cc2cc(NS(C)(=O)=O)ccc2O[C@H]1CN(C)Cc1ccncc1	-0.3
62	COc1ccc(NC(=O)Nc2ccc3c(c2)CC(=O)N([C@H](C)CO)C[C@H](C)[C@H](CN(C)C)O3)cc1	0.8
63	C[C@@H]1CN([C@H](C)CO)C(=O)c2cc(NC(=O)Nc3ccccc3)ccc2O[C@H]1CN(C)C	-0.1

Screening results from PubChem.

A portion of the library (hit frequency here may not be typical).
